# Compound activity from PubChem.
# HSD17B inh = blocks hydroxysteroid 17-beta dehydrogenase activity | Q99714 | recombinant HSD17B10, NADH fluorescence kinetic; many of its hits are not listed in these tables | Potency, µM (titrated, usually from 57.1 µM), inactives show at the top dose activity change, negative = inhibition, most hits filed as inhibitors | actives 7.6% (n = 75,000) | AID 893; active means well fitted inhibition curve with a large enough effect; inconclusive means small, poorly fitted or top-dose-only effect; inactive means no such curve, though single readings can be large or run the other way;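 further: the protocol describes HADH2 (HSD17B10) and not the HSD17B4 of the title; nearly all actives have a fitted effect of over 70% in size; most hits overshoot -100% by far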
#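 20 nM HADH2, pH 9.0 Tris/Tween; cpd preinc 15 min RT; start w/ 1 mM NAD+ + 90 uM b-hydroxybutyryl-CoA; kinetic fluor ex360/em450 q30s x 4 min; delta last-first.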
# Numbers without * were called inactive; u = inconclusive; [ ] = another dose, or the depositor's remark. On the % scale 0 is the no-effect control and ±100 the full control effect; potency means the concentration at half of the fitted maximal effect. The list is partial; the hit share may differ from the screen's.
SMILES,HSD17B inh
CCOC(=O)C(NCc1ccccn1)(NC(=O)c1cccnc1)C(F)(F)F (stereo not drawn),-7%
O=C(Nc1cccc(C(=O)Nc2ccc(S(=O)(=O)O)c3cc(S(=O)(=O)O)cc(S(=O)(=O)O)c23)c1)Nc1cccc(C(=O)Nc2ccc(S(=O)(=O)O)c3cc(S(=O)(=O)O)cc(S(=O)(=O)O)c23)c1,13µM*
Cc1ccc2c3c1C1(C(=O)N3C(C)(C)CC2C)C(C#N)=C(N)Oc2cc(O)ccc21 (stereo not drawn),-3%
O=C(CSc1n[nH]c(-c2ccccc2O)n1)N1CCCc2ccccc21,-15%
O=C(NCc1ccco1)C(c1ccccc1F)N(Cc1cccnc1)C(=O)Cn1nnc2ccccc21 (stereo not drawn),-3%
Cc1ccc(C2CC(=O)Nc3cc4c(cc32)OCCO4)s1 (stereo not drawn),-7%
CN=C(NC)SC1CC(=O)N(c2ccccc2)C1=O (stereo not drawn),-3%
CCOC(=O)c1ccc(NC(=O)Cn2cccc2)cc1,0%
COc1ccc2nc3oc(C(=O)N4CCN(c5ccccc5F)CC4)cc3cc2c1,u
COc1ccc(NC(=O)N2CCn3c2nc2ccccc23)cc1,2%

# Some of the entries above, set out differently.
> CN=C(NC)SC1CC(=O)N(c2ccccc2)C1=O (stereo not drawn)
  HSD17B inh: -3%
> CCOC(=O)c1ccc(NC(=O)Cn2cccc2)cc1
  HSD17B inh: 0%
> COc1ccc2nc3oc(C(=O)N4CCN(c5ccccc5F)CC4)cc3cc2c1
  HSD17B inh: u

# (list continues)
SMILES,HSD17B inh
Cn1c(=O)[nH]c(=O)c2c1nc(N1CCCC1)n2CC(O)COc1ccccc1 (stereo not drawn),2%
O=C(COC(=O)C1(c2ccc(F)cc2)CCCC1)N1CCN(C(=O)c2ccco2)CC1,5%
COc1ccc(C(=O)N2CCC3(CC2)CN(c2ccccn2)C3)cc1,32µM*
COCCNC(=O)CSc1nc2ccccc2c(=O)n1CC1CCCO1 (stereo not drawn),22%
O=c1[nH][nH]c(=O)c2cc(N3CCCC3)ccc12,32µM*
C=CCN1CCc2c(cc(O)c(O)c2Br)[C@H](c2ccccc2)C1,u
CCN1C(=O)CC(N2CCC(Nc3ccc(OC)cc3)CC2)C1=O (stereo not drawn),-16%
COc1ccc2[nH]cc(CCNc3ncnc4ccc(-c5ccc6c(c5)OCO6)cc34)c2c1,1%
O=C(c1ccco1)N1CCN(C(=O)C(Cc2ccccc2)NS(=O)(=O)c2cccs2)CC1 (stereo not drawn),16µM*
COC(=O)c1cccc(NC(=O)NC2CCCN2S(=O)(=O)c2ccc(Cl)cc2)c1 (stereo not drawn),-4%
Nc1ccccc1SCc1csc(-c2ccc(Cl)cc2)n1,-12%[11.4 µM]
COc1ccc(OC)c(NC(=O)C2CC(=O)N(c3ccccc3)C2)c1 (stereo not drawn),-5%
CC1(C)CC(NC(=O)c2ccccc2Cl)CC(C)(C)N1,2%
COc1cc2c3c(c1)C1(C(=O)N3C(C)(C)C=C2C)C(C#N)=C(N)Oc2cc(C)oc(=O)c21 (stereo not drawn),-6%
COc1ccc(-n2nnc3c(SCC(=O)Nc4ccc5c(c4)OCCO5)ncnc32)cc1,-20%
Cc1nn(CC(=O)Nc2ccc(C(=O)N3CCCCC3)cc2)c(=O)c2ccccc12,9%
COc1ccccc1NC(=O)CSc1nnc(COc2ccc(Cl)cc2)n1Cc1ccco1,u
O=C(CSc1c[nH]c2ccccc12)N1CCOCC1,8%
CC(CN1CCOCC1)OC(=O)COc1ccc(F)cc1 (stereo not drawn),9%
CC(C)NC(=O)[C@@H]1C[C@@]1(C)[C@@H](NC(=O)OCc1ccccc1)c1ccccc1,14%

# Two successive compounds out of the list so far, quoted:
SMILES,HSD17B inh
CC(CN1CCOCC1)OC(=O)COc1ccc(F)cc1 (stereo not drawn),9%
CC(C)NC(=O)[C@@H]1C[C@@]1(C)[C@@H](NC(=O)OCc1ccccc1)c1ccccc1,14%

# Next results.
SMILES,HSD17B inh
COCCN1C=C(C(=O)OC)C(c2cc3c(cc2Br)OCO3)C(C(=O)OC)=C1,u
C=CCc1ccccc1OCC(O)CNC (stereo not drawn),10%
CCOC(=O)C1=C(C)NC(=O)NC1c1c(OCC(=O)N2CCCCC2)ccc2ccccc12 (stereo not drawn),6%
CCOC(=O)N1CCN(C(=O)CCC(=O)N2CCOc3ccc(C)cc32)CC1,2%
Cc1ccc(S(=O)(=O)N(C)Cc2ccc(-c3nnco3)cc2)cc1,0%
Cc1ccc(C(=O)CNc2nc3c(c(=O)[nH]c(=O)n3C)n2Cc2ccccc2)cc1,3%
CC(CNC(=O)c1ccc(Br)o1)NC(=O)c1ccc(Br)o1 (stereo not drawn),5%
Cn1c(SCc2c(F)cccc2Cl)nnc1-c1cnccn1,-3%
O=C(CCn1c(=O)oc2ccccc21)N(Cc1ccccc1)c1ccccn1,-6%
CC(=O)N1CCc2cc(S(=O)(=O)Nc3ccccc3N3CCN(C)CC3)ccc21,1%
CCOC(=O)c1oc2ccccc2c1NC(=O)c1cccs1,u
CCCCC(CC)CN1CN(CC(CC)CCCC)CC(C)(N)C1 (stereo not drawn),2%
CC(CSc1nc2ccccc2s1)Cn1c(N2CCCC2)nc2c1c(=O)[nH]c(=O)n2C (stereo not drawn),12%
O=C(CCn1c(=S)oc2ccccc21)Nc1ccc2c(c1)OCCO2,7%
O=C(Cn1cccc1C(=O)c1ccccc1)NCc1ccccn1,-3%
CCCCC(CC)C(=O)NCCCN1CCN(CCCNC(=O)C(CC)CCCC)CC1 (stereo not drawn),-4%
CC1(C)C2CCC1(C)C(OC(=O)CSc1nc(N)cc(=O)[nH]1)C2 (stereo not drawn),-26%
COc1cc(OC)cc(C(=O)Nc2ccccc2N2CCOCC2)c1,3%
CCC(C)(C)n1nnnc1CN(Cc1ccc(Cl)cc1)Cc1ccco1,-9%
COc1ccc(Br)cc1CNC(=O)C1CCC(=O)N1C(C)C (stereo not drawn),7%

# Two records drawn at random from those above, as already listed:
SMILES,HSD17B inh
COc1cc(OC)cc(C(=O)Nc2ccccc2N2CCOCC2)c1,3%
O=C(Cn1cccc1C(=O)c1ccccc1)NCc1ccccn1,-3%

# Remaining list, next part
SMILES,HSD17B inh
CCOC(=O)c1cnc(Nc2nc3ccccc3o2)nc1CN1CCN(c2ccccc2)CC1,-1%
CCOc1ccc(-c2nnc(SCC(=O)N3CCOCC3)o2)cc1,-1%
O=C(O)[C@H]1CC=CC[C@@H]1C(=O)Nc1cccc(O)c1,1%[11.4 µM]
O=C(NC1CCCCC1)N1CCCCCC1,16%
Cn1cccc1Cc1nnc(SCC(=O)NC2CCCC2)n1-c1ccc(F)cc1,4%
COc1ccc(C2C3=C(CCCC3=O)Nc3nc(C(F)(F)F)nn32)c(OC)c1OC (stereo not drawn),u
CCN1CCCC1CNC(=O)CCNC(=O)c1cc(OC)c(OC)c(OC)c1 (stereo not drawn),11%
COc1cc(/C=N/n2cnnc2)ccc1OCC(=O)N1CCOCC1,-11%
COC(=O)C[C@](O)(CCCC(C)(C)O)C(=O)O[C@@H]1C(OC)=C[C@]23CCCN2CCc2cc4c(cc2[C@H]13)OCO4,-1%
CC1CC(c2ccccc2)n2nc(NC(=O)CCc3ccccc3)nc2N1 (stereo not drawn),-1%
Cc1cc(C)n2nc(SCc3ncc(-c4ccccc4)o3)nc2n1,3%
Cc1nnc2sc(-c3ccc(-c4ccc(Cl)c(C(F)(F)F)c4)o3)nn12,4µM*
O=C1c2cccnc2C(=O)N1Cc1ccc(F)cc1,2%
COc1cc(OC)c(NC(=O)c2ccc(Br)o2)cc1Cl,-12%
CCCCOC(=O)Nc1ccc(S(=O)(=O)Nn2cnnc2)cc1,5%
CCc1cc2cccc(C)c2nc1SCC(=O)N1CCN(C(=O)c2ccco2)CC1,-10%
Cn1nccc1/C=C(/C#N)S(=O)(=O)c1ccccc1,3%
O=S(=O)(N1CCCCC1)n1nnc2ccccc21,-9%
Clc1ccc(CN2C3=NCCN3c3ccccc32)cc1,-5%
Cc1cc(O)ccc1Nc1nc2ccccc2nc1Nc1ccc(O)cc1C,-15%
CCn1c(Cc2ccccc2)nnc1SCC(=O)OC(C)C,0%
Cc1nnc2n1NC(c1ccc(Cl)cc1)C(C(=O)N1CCC(C)CC1)S2 (stereo not drawn),3%
CC(=O)OCC(OC(C)=O)C(OC(C)=O)C(OC(C)=O)C(=O)Nc1ccc(C)cc1C (stereo not drawn),-7%
O=C(NCc1nc2ccccc2[nH]1)c1cccs1,3%
O=C(NCc1ccc(F)cc1)c1cc(-c2ccco2)on1,5%
Cc1nn(Cc2ccccc2Cl)c(C)c1NC(=O)C1C2CCC(O2)C1C(=O)O (stereo not drawn),-3%
Cc1cc2oc(C(=O)NC3CCS(=O)(=O)C3)c(C)c2cc1C (stereo not drawn),u
CSc1ccc(NC(=O)Nc2cc(C)ccn2)cc1,5%[11.4 µM]
CCCCNC(=O)CSc1nnc(-c2ccco2)n1C,3%
CN(CC(=O)NCCCN1CCOCC1)S(=O)(=O)c1ccc(Br)cc1,12%
C=CCn1c(N2CCCCCC2)nc2c1c(=O)[nH]c(=O)n2C,12%
CCc1nc(SCC(=O)Nc2nccs2)c2oc3ccccc3c2n1,-12%
CC1(C)CC(=O)C2=C(C1)NC(Nc1nc3ccccc3o1)=NC21CCCCC1,3.2µM*
O=C1CCC/C1=c1\s/c(=C\c2cccnc2)c(=O)n1-c1ccccc1,-8%
COCCCNS(=O)(=O)c1ccccc1,1%
COc1ccc(-c2nnc(SC(C)C(=O)Nc3cccc(Cl)c3)o2)cc1 (stereo not drawn),5%
CC(=O)c1c(C)[nH]c(C(=O)OC2CCCCC2=O)c1C (stereo not drawn),-3%
CC(NC(=O)c1nn(C)c(=O)c2ccccc12)c1ccccc1 (stereo not drawn),-2%
CCCCOc1cc(C[C@@H]2CNC(=O)N2)ccc1OC,6%
COc1cc(C)c(S(=O)(=O)N2CCOCC2)cc1C(C)C,-18%
O=C(O)Cn1c(-c2cscn2)nc2ccccc21,u
Cc1ccc(Cn2c(CN3CCOCC3)nc3c2c(=O)n(C)c(=O)n3C)cc1,-7%
O=C(Nc1ccccc1)OCCOc1ccccc1,11%
CCCCCn1c(=N)n(CC(O)COc2ccccc2OC)c2ccccc21 (stereo not drawn),3%
CC1CCCN(C(C(=O)Nc2ccc3c(c2)OCO3)c2ccccc2)C1 (stereo not drawn),-5%
O=C(CN(CC1CCCO1)C(=O)CCC(=O)Nc1ccccn1)NCC1CCCO1 (stereo not drawn),-7%
COc1cc2ccccc2cc1C(=O)Nc1ccccc1N1CCN(S(C)(=O)=O)CC1,25µM*
CCCCCCn1c(=O)c(-c2nc3ccccc3c(=O)[nH]2)c(O)c2ccccc21,-1%
CCOC(=O)CSc1nc2ccsc2c(=O)n1C1CCN(C(=O)OCC)CC1,0%
Cc1ccc(C(C(=O)NCc2ccco2)N(C(=O)Cn2nnc3ccccc32)c2ccccc2)o1 (stereo not drawn),-18%

# Exported bar-delimited: part of the list above.
SMILES | HSD17B inh
O=C(CN(CC1CCCO1)C(=O)CCC(=O)Nc1ccccn1)NCC1CCCO1 (stereo not drawn) | -7%
COc1cc2ccccc2cc1C(=O)Nc1ccccc1N1CCN(S(C)(=O)=O)CC1 | 25µM*

# The results go on:
SMILES,HSD17B inh
CN(Cc1cccc(F)c1)C(=O)c1ccc(S(=O)(=O)C(F)F)cc1,1%
Nc1cc(=O)[nH]c(SCc2nnc(-c3ccccc3)o2)n1,u
CCN(CC)c1ccc2c(C)cc(=O)oc2c1,32µM*
O=C(NCC(=O)N(Cc1ccco1)C(C(=O)NC1CCCCC1)c1cccnc1)c1ccco1 (stereo not drawn),8%
Cc1nnc2ccc(N3CCC(C(N)=O)(N4CCCCC4)CC3)nn12,11%
COc1ccc(OCC(O)CN2CCCCC2)cc1 (stereo not drawn),6%
CCOCCOC(=O)c1[nH]c2c(c1C)C(=O)CC(c1ccc(N(C)C)cc1)C2 (stereo not drawn),-2%
COc1cc(C2c3sc(=O)[nH]c3SC3C4CCC(C4)C23)ccc1O (stereo not drawn),25µM*
Cc1ccc(S(=O)(=O)N2CCN(C(=O)CCC(=O)OCC(=O)Nc3cccc(C#N)c3)CC2)cc1,-1%
CC1Cc2ccccc2N1C(=O)CN1CCc2ccccc2C1 (stereo not drawn),10%
CCCCN(CC)CCCNC(=O)c1cc2c(=O)n(C)c3ccccc3c2n1C,25µM*
O=C1CCCC2=C1C1(CCCCC1)N=C(Nc1nc3ccccc3s1)N2,12%
Cc1ccccc1-n1nc(C)c2cc(C(=O)N3CCOCC3)sc21,-3%
CCCOc1ccc(N2C(=O)CC(N3CCN(C(=O)c4ccco4)CC3)C2=O)cc1 (stereo not drawn),4%
c1cncc(-c2nc(N3CCCCCC3)c3ccccc3n2)c1,u
O=C1c2ccccc2C(=O)N1OCc1ccccc1,14%
CCOC(=O)N1CCN(C(=O)Cn2nc(C)c3sc4ccccc4c3c2=O)CC1,u
Nc1nnc(SCC(=O)Nc2ccc(F)c(Cl)c2)n1-c1ccccc1,u
CN(c1ccccc1C(=O)Nc1ccc2c(c1)OCO2)S(C)(=O)=O,-14%
O=C(NC1CCCCC1)N1CCN(C2CCCCC2)CC1,13µM*
CC(C)(C)OC=O,-3%
CC1CN(C(=O)c2ccccc2C(=O)c2ncc[nH]2)CC(C)O1 (stereo not drawn),3%
